Assay outcomes: PubChem, several laboratories
PABP polyA inh – PABP-poly(A) binding inhibition. inhibition, % at 35 µM. P11940. AID 2014. 1% of 290,000 active. PABP-poly(A) RNA binding, fluorescence polarization;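 active means 50% or more with normal probe brightness, or confirmed in later tests; about a fifth of its hits are not listed in these tables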;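 further: calls also rest on retests at 20 µM and on dose response follow-up; controls were probe without protein and protein plus probe with vehicle; some compounds called inactive have numbers as strong as hits; many hits fall short of the cut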
Target sequence (P11940 whole entry, looked up): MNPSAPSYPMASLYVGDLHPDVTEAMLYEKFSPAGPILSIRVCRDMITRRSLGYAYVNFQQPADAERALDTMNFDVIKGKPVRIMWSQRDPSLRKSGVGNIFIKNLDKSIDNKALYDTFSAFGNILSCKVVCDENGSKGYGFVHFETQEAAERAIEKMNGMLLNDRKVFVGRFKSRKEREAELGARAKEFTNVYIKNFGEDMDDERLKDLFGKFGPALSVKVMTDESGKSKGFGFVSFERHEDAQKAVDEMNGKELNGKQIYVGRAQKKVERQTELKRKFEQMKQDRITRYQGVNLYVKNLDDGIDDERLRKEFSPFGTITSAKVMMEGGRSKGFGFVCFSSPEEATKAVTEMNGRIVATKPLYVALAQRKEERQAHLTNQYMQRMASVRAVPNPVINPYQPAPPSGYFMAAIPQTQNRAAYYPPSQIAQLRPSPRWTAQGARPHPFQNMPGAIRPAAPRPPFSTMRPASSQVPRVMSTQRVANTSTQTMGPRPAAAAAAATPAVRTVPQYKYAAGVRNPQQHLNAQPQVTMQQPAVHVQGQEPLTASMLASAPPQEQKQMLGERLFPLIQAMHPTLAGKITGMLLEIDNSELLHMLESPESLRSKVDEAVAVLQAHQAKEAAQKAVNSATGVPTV
Rce1 inh – blocks yeast Ras-converting enzyme; Q03530; yeast membranes, quenched prenylated peptide cleavage fluorescence; calls only; 0.27% of 290,000 active;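 active means fall in fluorescence gain of 50% or more versus controls, with final raw signal at or below 3038400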;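 further: plate controls were neutral control wells for no effect and wells lacking membranes for full effect; tested at 10 µM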
CSC inhib – blocks cancer stem cells; cancer stem cell-like cells viability, luminescence; inhibition, % at 7.5 µM; 1.1% of 300,000 active; AID 2717;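 active means mean at 75% or more and at least half the replicates too; tested in HMLE shEcad cells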;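 further: 0% = median of negative and 100% = median of positive control wells; the first replicate is given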
Yeast UUG start – alters start codon recognition fidelity in yeast. activity score, % at 18.7 µM. 0.13% of 350,000 active. AID 602363. S. cerevisiae UUG-firefly luciferase reporter, luminescence/redox ratio;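 active means replicate mean at a twofold rise or more, about +100% in these data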;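 further: firefly luciferase made from a UUG start codon reports start codon fidelity; reporter light over untreated wells divided by growth signal over untreated wells; some hits fall short of that in this replicate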
MT1-MMP act inh – MT1-MMP (human) activation inhibition | GFP/RFP ratio change, % at 20 µM | 0.061% of 360,000 active | AID 651647 | HT1080 RFP-PRO-GFP cells, GFP/RFP ratio fluorescence, overnight; percent of plate control window, DMSO zero | P50281;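 active means GFP/RFP ratio change of at least 30% with cell ATP level not reduced by more than half and red fluorescence within 50% of control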; further: strong numbers were not always called active
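Material: RFP-PRO-GFP reporter HT1080 cells. Dosing: single-point 20 µM compound, 1% DMSO. Controls: DMSO and RFP-L50D-GFP cell wells. Timing: cells overnight before dosing, compound overnight, 37 °C, 5% CO2. Measure: GFP/RFP fluorescence ratio.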
Env fusion inh – blocks HIV Env-driven cell-cell fusion | inhibition, % at 12.3 µM | 1.1% of 360,000 active | AID 651610 | HeLa-JRFL Env/CEM21 cell fusion, luciferase;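 active means mean replicate inhibition score of at least 50 and every replicate individually at or above 50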;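 further: 0% = plate neutral controls and 100% = maraviroc near 300 nM; one replicate is shown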
eIF4H FP inh – inhibitors of RNA binding by human eIF4H | Q15056 | inhibition, % at 35 µM | eIF4H fluorescence polarization binding assay | 0.94% of 290,000 active | AID 2012;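 active means 50% or more with normal probe brightness, or confirmed in later tests; about a fifth of its hits are not listed in these tables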;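 further: calls also rest on retests at 20 µM and on dose response follow-up; 0% = protein and probe with vehicle and 100% = probe without protein; strong numbers were not always called active; many hits fall short of the cut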
eIF4H FP inh retest – recorded beside eIF4H FP inh, whose call it bears; inhibition, %; compound at 20 µM; confirmation average;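 mean of two retest wells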
PABP polyA inh retest – also measured in PABP polyA inh; calls as there; inhibition, %; compound at 20 µM; confirmation repeats;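 mean of two retest wells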
MT1-MMP act inh RFP – also measured in MT1-MMP act inh; calls as there; RFP signal change, %; measured here: RFP expression control read;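 0 = vehicle wells; hits needed this value within 50% of zero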
Starred values were filed as active, the others as inactive; i = inactive; · = not tested or not shown.

SMILES | PABP polyA inh | Rce1 inh | CSC inhib | Yeast UUG start | MT1-MMP act inh | MT1-MMP act inh RFP | Env fusion inh | eIF4H FP inh | others
COc1ccc(S(=O)(=O)N2CC(=O)Nc3ccccc32)cc1C | 5 | i | -7 | -9 | 2 | 2 | 1 | -2
CCOC(=O)c1[nH]c(C)c(C(=O)OCC(=O)NCc2ccc(OC)c(OC)c2)c1C | · | · | 8 | 5 | 2 | 1 | · | ·
N#CC1=C2SCN(Cc3ccccc3)CN2C(=O)CC1c1ccc2c(c1)OCO2 (configuration not stated) | 1 | i | -8 | -12 | 2 | 1 | -63 | 0
N#Cc1c(NC(=O)c2ccncc2)sc2c1CCC2 | 6.8* | i | -4 | · | -3 | 1 | · | 51* | eIF4H FP inh retest=95*;PABP polyA inh retest=97*
CCOc1ccc(N(C(C)C(=O)NCc2ccco2)S(C)(=O)=O)cc1 (configuration not stated) | -6 | i | -13 | 12 | 1 | -3 | · | 2
Cc1ccc(/C=C(\C#N)C(=O)Nc2ccccn2)o1 | 8 | i | -5 | -17 | -3 | 6 | -54 | 4
CC(C)Cc1nc2n[nH]c(N)c2c2c1CCC2 | -9 | i | 42 | -11 | 10 | 5 | · | -3
O=C(O)CN(c1ccc2c(c1)OCCO2)S(=O)(=O)c1ccccc1 | -5 | i | -13 | -9 | -1 | 2 | · | 5
COc1cccc(/C=C/C(=O)Nc2ccc3[nH]c(=O)[nH]c3c2)c1 | -3 | i | -2 | · | 1 | -4 | -6 | 0
O=C(NCCN1CCOCC1)c1cc(Sc2ccc(F)cc2F)nc2ccccc12 | 12 | i | 7 | 0 | 2 | 2 | 3 | 6
COc1ccc(/C=C/CN2CCC(n3nccc3NC(=O)C3CC3)CC2)cc1 | 1 | i | -8 | -17 | 2 | 3 | -4 | 0
CN(CCCNS(=O)(=O)c1cccc2cccnc12)Cc1ccccc1 | 1 | i | -2 | -18 | -3 | 8 | 1 | 0
Cn1c(SCC(=O)N2CCN(c3ccccc3)CC2)nnc1-c1ccco1 | 0 | i | -6 | -13 | 0 | 0 | 3 | -8
OCC1(CCOc2ccccc2)CCN(Cc2cccn2-c2ncccn2)CC1 | -6 | · | 1 | · | 0 | 2 | -5 | 0
CC(=O)c1c(C)[nH]c(C(=O)NC2=NCCS2)c1C | 0 | i | -2 | -17 | 3 | 2 | 35 | 13
CC(NC(=O)c1c(F)cccc1Cl)c1ccc(-n2ccnc2)cc1 (configuration not stated) | 0 | i | -4 | -16 | 2 | 4 | 1 | 4
C/C(=N\NC(=O)c1ccc(NS(=O)(=O)c2cccs2)cc1)c1ccc(O)cc1O | -1 | i | 62 | -8 | -3 | 2 | -55 | 3
COc1ccc(-c2c(C(F)(F)F)oc3c(CN4CCN(C)CC4)c(O)ccc3c2=O)cc1 | 3 | i | -2 | · | 4 | 2 | · | 8
COc1ccc(NC2=C(C(C)=O)C(c3ccc4c(c3)OCO4)C(C(C)=O)C(C)(O)C2)cc1 (configuration not stated) | 34 | i | · | -18 | 1 | -3 | 15 | -5
O=C(O)CCC(=O)NNC(=O)COc1ccc(Cl)cc1Cl | -6 | i | 9 | · | 4 | 4 | 11 | 2
COc1cc(NCCCCCCCN)c2ncccc2c1 | -2 | i | 54 | -13 | -9 | -2 | · | 12
N#Cc1ccc(C(=O)Nn2cnnc2)cc1 | -2 | i | -8 | -11 | -6 | 1 | 8 | -19
CC(OC(=O)C1CSC2(C)CCC(=O)N12)C(=O)Nc1ccc(F)cc1 (configuration not stated) | · | · | · | -5 | 3 | -1 | -6 | ·
COc1cccc(-n2c(SCC(=O)Nc3nc4ccccc4s3)nc3ccccc3c2=O)c1 | -9 | i | 20 | · | · | · | 28 | 5
O=C(C1CCN(S(=O)(=O)c2ccc(F)cc2)CC1)N1CCOCC1 | -2 | · | -6 | -10 | 0 | 1 | · | 2
O=C(CNC(=O)c1ccc(-c2ccccc2)cc1)OCc1c(Cl)cccc1Cl | -5 | i | 5 | · | 4 | 4 | · | 14
COC(=O)c1ccc(CNC(=O)COC(=O)/C=C/c2cc(OC)c(OC)c(OC)c2)cc1 | · | · | 2 | -11 | -1 | -7 | -13 | ·
CC(=O)NC(c1ccco1)c1cc(Cl)c2cccnc2c1O (configuration not stated) | · | · | · | -24 | 5 | -1 | 11 | ·
C/C(NCCCn1ccnc1)=C(\C#N)C(N)=O | -6 | i | -3 | -10 | -3 | 3 | · | -5
CC(C)COCC1CC2(CC(C)C(=O)CC2=O)C(=O)O1 (configuration not stated) | 2 | i | -1 | -1 | 1 | 8 | · | -7
Cc1cc(C)cc(CC2CC(=O)N(c3nc(C)cc(C)n3)C2=O)c1 (configuration not stated) | · | i | 9 | -12 | 2 | 2 | 14 | ·
COc1cccc(CNC(=O)c2c(C)nn(-c3ccccc3)c2C)c1 | 7 | i | 12 | -41 | 1 | 1 | 10 | -6
Cc1ccc(N)c2c1OCCC2=O | 2 | i | -12 | · | -11 | -4 | -50 | 9
CCN(CC)CC(O)COc1ccc2c(c1)c(C(C)=O)c(C)n2-c1ccccc1 (configuration not stated) | -1 | i | 47 | -5 | -2 | -8 | · | 6
O=C(CNC(=O)c1ccco1)NCC(=O)OCc1c(F)cccc1Cl | 6 | i | -13 | -9 | -2 | -1 | 3 | 4
Cc1ccc(NC(=O)CC(=O)Nc2ccc(C)c(C)c2)cc1C | -15 | i | · | 10 | -3 | 2 | 1 | -4

In the list so far, these contain a thiophene ring, fused or not:
SMILES | PABP polyA inh | Rce1 inh | CSC inhib | Yeast UUG start | MT1-MMP act inh | MT1-MMP act inh RFP | Env fusion inh | eIF4H FP inh | others
N#Cc1c(NC(=O)c2ccncc2)sc2c1CCC2 | 6.8* | i | -4 | · | -3 | 1 | · | 51* | eIF4H FP inh retest=95*;PABP polyA inh retest=97*
C/C(=N\NC(=O)c1ccc(NS(=O)(=O)c2cccs2)cc1)c1ccc(O)cc1O | -1 | i | 62 | -8 | -3 | 2 | -55 | 3

Additional records
SMILES | PABP polyA inh | Rce1 inh | CSC inhib | Yeast UUG start | MT1-MMP act inh | MT1-MMP act inh RFP | Env fusion inh | eIF4H FP inh | others
CC(C)(C)OC(=O)NCC(=O)Oc1cc2oc(=O)cc(-c3ccccc3)c2cc1Cl | -6 | i | -13 | · | -4 | -3 | 22 | -6
COc1ccc(C(=O)NC(=S)Nc2cc(C)ccn2)cc1[N+](=O)[O-] | 24 | i | 19 | · | 0 | -1 | 12 | -7
CN(CC(=O)Nc1ccccc1Cl)C(=O)COC(=O)c1cc(S(=O)(=O)N(C)C)ccc1N1CCCC1 | · | i | -8 | -8 | 4 | 0 | -4 | ·
Cc1ccc2c(c1)cc(CN(C(=O)N1CCOCC1)C1CCCC1)c1nnnn12 | 4 | i | 5 | · | -1 | 1 | -16 | -2
Cc1cccc(NC(=O)c2ccc(COc3ccc4ccccc4c3)o2)n1 | -5 | i | 23 | · | 0 | 2 | -18 | 1
CC(=O)N1c2ccccc2C(C)CC12CCCCC2 (configuration not stated) | 6 | i | · | -9 | -2 | -1 | · | -4
Cc1ccc(C)c(OCC(=O)Nc2ccc(N3CCOCC3)cc2N2CCOCC2)c1 | · | · | · | -6 | 1 | -2 | 0 | ·
Cc1cc(=O)c2n(Cc3ccccc3Cl)nc[n+]2[nH]1 | 5 | i | -12 | -17 | 2 | 11 | -43 | -2
O=[N+]([O-])c1cc(N=Nc2ccc3ccccc3c2)ccc1O | -1 | i | 54 | -17 | 23 | -26 | -19 | -2
COC(=O)c1scc(C)c1NC(=O)CC1NCCNC1=O (configuration not stated) | -4 | i | -4 | -6 | 4 | 6 | 2 | 2
Cc1ccc(CN(CC(=O)NCC2CCCO2)S(=O)(=O)c2ccc(C)cc2)cc1 (configuration not stated) | -2 | i | · | -3 | -1 | -2 | -16 | -8
COc1ccc(S(=O)(=O)NCc2cccnc2)cc1C(=O)N1CCCCC1 | 8 | i | -8 | -10 | -4 | 2 | 6 | -4

Looked up one by one from the entries so far (5):
SMILES | PABP polyA inh | Rce1 inh | CSC inhib | Yeast UUG start | MT1-MMP act inh | MT1-MMP act inh RFP | Env fusion inh | eIF4H FP inh | others
C/C(=N\NC(=O)c1ccc(NS(=O)(=O)c2cccs2)cc1)c1ccc(O)cc1O | -1 | i | 62 | -8 | -3 | 2 | -55 | 3
Cc1ccc(CN(CC(=O)NCC2CCCO2)S(=O)(=O)c2ccc(C)cc2)cc1 (configuration not stated) | -2 | i | · | -3 | -1 | -2 | -16 | -8
COc1cccc(-n2c(SCC(=O)Nc3nc4ccccc4s3)nc3ccccc3c2=O)c1 | -9 | i | 20 | · | · | · | 28 | 5
COc1cc(NCCCCCCCN)c2ncccc2c1 | -2 | i | 54 | -13 | -9 | -2 | · | 12
COc1ccc(S(=O)(=O)NCc2cccnc2)cc1C(=O)N1CCCCC1 | 8 | i | -8 | -10 | -4 | 2 | 6 | -4

(more compounds)
SMILES | PABP polyA inh | Rce1 inh | CSC inhib | Yeast UUG start | MT1-MMP act inh | MT1-MMP act inh RFP | Env fusion inh | eIF4H FP inh | others
Cc1cnc(NC(=O)c2cccc(S(=O)(=O)N3CC(C)OC(C)C3)c2)s1 (configuration not stated) | 7 | i | -3 | · | 7 | -5 | 4 | 7
CC(=O)/C(=N\Nc1ccc(C)cc1)Sc1nncn1C | 6 | i | -16 | · | 0 | 1 | 1 | -4
Fc1ccc(Nc2nc(N3CCOCC3)nc(N3CCOCC3)n2)cc1 | 0 | i | -15 | -14 | -7 | -1 | 7 | -10
CN(C)C(=O)NC1c2ccccc2-c2ccccc21 | 5 | i | -1 | -4 | -1 | 2 | -5 | 2
CCN(CC(=O)Nc1cc(Cl)ccc1C)C(=O)CN1C(=O)NC(CC)(c2ccccc2)C1=O (configuration not stated) | · | i | 10 | · | -4 | 0 | -4 | ·
COc1ccc(NS(=O)(=O)c2cccc(C(=O)NNC(=O)CN3C(=O)NC(C)(C)C3=O)c2)cc1 | · | i | · | · | 0 | 2 | 7 | ·
CC12CCC(=O)N1C(C(=O)OCC(=O)Nc1cccc(Br)c1)CS2 (configuration not stated) | -1 | i | 17 | -9 | 1 | 1 | 18 | 0
CCCCOc1ccc(-c2nc(=S)[nH][nH]2)cc1 | -5 | i | 7 | -23 | 14 | -1 | -43 | 3
CC1CCCCN1C(=O)COc1ccc(NC(=O)c2ccco2)cc1 (configuration not stated) | -5 | i | -3 | 1 | -1 | 0 | -41 | 1
COc1ccc(NC(=O)COC(=O)c2ccc3ccccc3n2)cc1OC | · | · | -10 | -20 | 3 | 5 | 7 | ·
O=C(CSCC(=O)Nc1cccc([N+](=O)[O-])c1)Nc1ccccc1 | -8 | i | -7 | · | 2 | 1 | 3 | 3
CCOc1ccccc1NC(=O)CCCc1ccc(OC)c(C)c1 | -5 | i | 44 | 12 | 2 | -5 | 6 | 2
COc1ccc(S(=O)(=O)NCC(=O)NCCc2ccc(OC)c(OC)c2)cc1 | · | i | -6 | -14 | 4 | 4 | 13 | ·

Already shown: an excerpt of the list.
SMILES | PABP polyA inh | Rce1 inh | CSC inhib | Yeast UUG start | MT1-MMP act inh | MT1-MMP act inh RFP | Env fusion inh | eIF4H FP inh | others
Cc1cnc(NC(=O)c2cccc(S(=O)(=O)N3CC(C)OC(C)C3)c2)s1 (configuration not stated) | 7 | i | -3 | · | 7 | -5 | 4 | 7
CC(=O)/C(=N\Nc1ccc(C)cc1)Sc1nncn1C | 6 | i | -16 | · | 0 | 1 | 1 | -4
